RGS16-Gao HTS: regulators of human RGS16-Galphao interaction; O15492+P09471; bead-based flow cytometry RGS16-Galphao binding, fluorescence; actives lie on both sides; binding response (% of control), % at 10 µM; actives 0.38% (n = 220,000);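 active = below 25% or above 175%, edge rows of some plates excepted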;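 also: Galphao activated by GDP with aluminum fluoride before binding; 100% = wells without compound and 0% = beads without RGS; some results beyond the cut were filed as inactive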
Target sequence (O15492 whole entry, looked up): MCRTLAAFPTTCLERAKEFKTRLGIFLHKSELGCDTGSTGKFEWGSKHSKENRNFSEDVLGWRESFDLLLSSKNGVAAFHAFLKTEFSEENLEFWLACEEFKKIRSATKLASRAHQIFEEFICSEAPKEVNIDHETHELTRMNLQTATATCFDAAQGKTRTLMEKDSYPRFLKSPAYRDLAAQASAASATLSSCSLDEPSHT
Target sequence (P09471 whole entry, looked up): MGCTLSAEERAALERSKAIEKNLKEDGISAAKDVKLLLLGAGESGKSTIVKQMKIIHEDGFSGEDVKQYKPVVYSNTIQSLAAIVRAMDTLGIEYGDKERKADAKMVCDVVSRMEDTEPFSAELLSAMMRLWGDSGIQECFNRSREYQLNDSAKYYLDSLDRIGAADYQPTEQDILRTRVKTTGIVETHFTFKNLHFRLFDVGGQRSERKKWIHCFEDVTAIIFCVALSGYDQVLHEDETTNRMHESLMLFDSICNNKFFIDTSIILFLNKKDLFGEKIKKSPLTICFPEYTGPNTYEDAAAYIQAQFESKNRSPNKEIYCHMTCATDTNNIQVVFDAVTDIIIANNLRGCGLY
GALR2 ag: GALR2 (human) receptor agonism | O43603 | GALR2-expressing cells, agonist activation read-out | activation, %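 (tested at 5 µM)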 | actives 0.48% (n = 140,000);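 active = above mean plus 3 SD of all compounds, about 5% in these data, not always enough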;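 also: 0% = vehicle buffer wells and 100% = reference agonist at full effect; tested in CHO reporter cells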
Target sequence (O43603 whole entry, looked up): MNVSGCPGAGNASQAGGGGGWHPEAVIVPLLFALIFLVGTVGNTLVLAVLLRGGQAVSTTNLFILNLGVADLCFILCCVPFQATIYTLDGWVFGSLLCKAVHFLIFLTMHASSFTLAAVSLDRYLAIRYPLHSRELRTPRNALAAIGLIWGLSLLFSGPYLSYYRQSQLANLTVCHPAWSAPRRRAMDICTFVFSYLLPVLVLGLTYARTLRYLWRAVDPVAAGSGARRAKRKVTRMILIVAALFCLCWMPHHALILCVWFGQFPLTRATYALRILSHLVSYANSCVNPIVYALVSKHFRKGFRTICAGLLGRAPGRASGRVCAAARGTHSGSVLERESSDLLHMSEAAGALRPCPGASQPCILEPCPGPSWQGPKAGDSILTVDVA
Insulin prom inh: TRM-6 insulin promoter activity inhibition; TRM-6 cells (human fetal islet line), insulin promoter-eGFP reporter, imaging; reporter expression induced with tamoxifen; inhibition, % at 2 µM; AID 1273; actives 0.9% (n = 130,000);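 active = inhibition above the mean plus 3 SD, with well images judged a real hit on visual review, cut at about 60% in these data, passing the limit was not always enough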
PKD1 kinase inh: PKD1 (human) kinase inhibition | inhibition, %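 (about 10 µM by stock and volumes)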 | Q15139 | actives 0.056% (n = 200,000) | PKD1 kinase fluorescence polarization assay;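 active = inhibition of 50% or more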;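 also: controls were vehicle for no effect and a reference inhibitor for full effect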
HSV replic up: HSV replication enhancement | maximum fold increase | HSV replication augmentation in cells, fold increase | actives 0.005% (n = 220,000);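 active = peak rise of 1.5-fold or more in the series; tested in PC3 cells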;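 also: first round at 10 µM; read as green reporter fluorescence; hits show the peak of a series up to 25 µM; 1 = signal of infected wells without compound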
Insulin prom inh cell count: recorded beside Insulin prom inh, whose call it bears; normalized cell count, %; measured here: cell count, toxicity; reference of the scale not given here;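 cells exposed to compound for 48 h; stained nuclei by imaging scaled within each plate; lower means fewer cells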
HSV replic up primary fold: recorded beside HSV replic up, whose call it bears; fold increase; compound at 10 µM; measured here: primary screen fold increase 10 uM; tested in PC3 cells;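 GFP signal in the first replicate; 1 = infected wells without compound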
Numbers without * were called inactive; i = inactive; . = not tested or not shown.

Compound,GALR2 ag,RGS16-Gao HTS,HSV replic up primary fold,HSV replic up,Insulin prom inh cell count,Insulin prom inh,PKD1 kinase inh
COc1cc(-c2noc(C3CCCN(S(=O)(=O)c4cccc(Cl)c4)C3)n2)cc(OC)c1OC (stereo not drawn),-1.7,97,1,i,.,.,9
Cc1ccc(NC(=O)CN(C)C(=O)CCOc2cccc(C)c2)cc1,-0.3,96,1.1,i,103,-12,9
CCCCC(=O)NCc1ccc2c(c1)cc(C)n2C,-1.5,95,1.1,i,.,.,0
CCN1CCN(C(=O)c2ccc(COc3ccc(Cl)cc3)o2)CC1,-0.7,101,0.92,i,127,49,-4
Cc1ccc(S(=O)(=O)Nn2c(C)ccc2C)cc1,-1.8,85,1,i,138,0,9
CC(=O)N1CCN(c2nnnn2-c2ccccc2)CC1,-2.1,103,0.95,i,176,-71,-7
O=[N+]([O-])c1cc([N+](=O)[O-])c(N2CCOCC2)cc1NCc1ccccc1,-0.9,97,0.84,i,.,.,-10
Cc1cc(Nc2ccccc2Br)n2nc(C)nc2n1,0.0,106,.,.,80,-20,-4
Cc1csc(SCc2c(C(=O)O)oc3ccccc23)n1,-0.3,105,0.8,i,62,-11,1
O=C(NCCc1cccs1)C12CN(Cc3ccccc3)CC1C(c1cccc([N+](=O)[O-])c1)=NO2 (stereo not drawn),0.0,83,0.89,i,133,-41,4
Cc1ccc(C(=O)N/C(=C/c2ccccc2)C(=O)NCc2ccncc2)cc1,.,101,0.96,i,.,.,.
O=C(CNC(=O)C(c1ccccc1)c1ccccc1)N/N=C\c1ccc2c(c1)OCO2,1.3,29,0.98,i,71,39,-1
COC(=O)Nc1c(C)n(C)n(-c2ccccc2)c1=O,-1.4,101,0.79,i,.,.,-5
CCc1ccc(NC(=O)C(C)OC(=O)c2cc(=O)[nH]c3ccc(S(=O)(=O)Nc4ccc(F)cc4)cc23)cc1 (stereo not drawn),.,97,0.99,i,.,.,-1
CN1CCN(C(=O)c2ccc(-n3cccc3)cc2)CC1,-4.9,98,0.81,i,79,0,2
Cc1ccc(C(=O)NNC2=Nc3cccc4cccc2c34)cc1,0.2,108,.,.,109,10,54*
Cc1ccc(C(=O)COC(=O)CSc2cccc3cccnc23)c(C)c1,0.3,.,0.91,i,107,41,-5
COC(=O)c1ccc(Nc2nc(C)cc(C)n2)cc1,-1.1,100,0.92,i,81,43,-1
Cc1cccc(-c2nnc3sc(-c4ccccc4C)nn23)c1,2.3,104,0.87,i,96,33,1
CCN(CC)C(C(=O)NC1CCCCC1)c1ccc(C)cc1 (stereo not drawn),.,101,0.97,i,90,-27,-2
C/C(=N\OC(=O)c1ccc(F)cc1)c1sc(-c2ccccc2)nc1C,-2.5,94,0.93,i,129,36,-11
Cc1cccc(SCc2noc(C(=O)NC(C)C)c2C(=O)O)c1,-3.6,112,0.81,i,111,19,-16
CC1Nc2nc(N(C)C)[nH]c(=O)c2NC1C (stereo not drawn),-2.1,94,1,i,93,51,3
O=c1ccc2cc(S(=O)(=O)N3CCN(c4ccccc4)CC3)ccc2o1,1.3,73,0.99,i,151,-40,-6
O=C(O)c1cccc(CSc2nnc(-c3ccco3)o2)c1,-1.0,104,1,i,112,-6,-2
Cc1nnc(NC(=O)c2sc3ccccc3c2Cl)s1,0.5,104,0.74,i,.,.,-8
COc1ccccc1C(=O)NCC(=O)N/N=C/c1cccc(Cl)c1,.,98,0.9,i,124,17,-3
Cc1cc(C(=O)COC(=O)/C=C/c2cccc(F)c2)c(C)n1C,.,100,0.98,i,.,.,4
COc1ccc(NC(=O)C2CCN(C(=O)c3cccs3)CC2)c(OC)c1,-2.0,78,0.93,i,158,16,-5
COC(=O)c1cccc(COC(=O)c2ccccc2NC(=O)c2ccco2)c1,-0.3,104,0.99,i,122,-24,-3
CC(O)[C@H]1CNC(=O)C(=O)N1CCC12CC3CC(CC(C3)C1)C2 (stereo partly drawn),.,103,0.97,i,.,.,.
CCOc1ccccc1NC(=O)c1cc(CC(C)C)oc1C,-3.6,98,0.88,i,131,-27,-2
Cc1ccc(C)n1-c1sc2c(c1C#N)CCCC2,-0.8,102,0.88,i,24,58,-10
CCC(Sc1ncnc2c1c(-c1ccccc1)cn2-c1ccc(OC)cc1)C(=O)OC (stereo not drawn),-0.3,104,.,.,.,.,-9
O=c1[nH]c2ccc(Cl)cc2c(-c2ccccc2)c1N1CCN(CCO)CC1,-2.9,104,0.76,i,91,21,-3
O=C(Cn1cnc2c(nnn2-c2ccccc2)c1=O)N1CCCc2ccccc21,0.2,97,0.89,i,108,-29,1
CNC(=S)NCCc1cc2c(OC)ccc(OC)c2[nH]c1=O,.,109,1,i,142,-18,0
O=C(C/C=N/OCc1ccccc1F)c1cnc(-c2ccc(Cl)cc2)s1,-3.4,103,0.91,i,128,4,-2
O=C(CSc1nnc(-c2ccccc2O)n1Cc1ccccc1)NNC(=O)c1ccccc1O,0.0,103,1.2,i,.,.,-6
COc1ccc(-c2nc(C#N)c(NCc3ccc(C)cc3)o2)cc1OC,-2.4,100,0.9,i,133,19,5
Cc1nn(CC(=O)Nc2cc(S(=O)(=O)N(C)C)ccc2Cl)c(C)c1[N+](=O)[O-],-0.3,108,1.1,i,89,-19,-6
COCCCNC(=O)C1CCN(c2ncccn2)CC1,-0.9,93,0.98,i,.,.,-8
Clc1ccc2nc3ccccn3c2c1,-0.6,122,0.96,i,106,68,17
CCN(CC)S(=O)(=O)c1ccc(N2CCN(S(=O)(=O)c3ccccc3C#N)CC2)nc1,-3.1,104,0.91,i,65,19,1
CCC(=O)N1CCc2cc(S(=O)(=O)NC(Cc3ccccc3)C(=O)NC3CCCCC3C)ccc21 (stereo not drawn),-1.2,98,0.83,i,92,-54,2
Cc1ccc(NC(=O)OCCNC(=O)c2ccncc2)cc1,.,101,1,i,141,19,0
O=C(Cn1c(=O)n(-c2ccc(F)cc2)c(=O)c2sccc21)c1ccccc1,0.2,107,0.89,i,123,7,-9
CCOC(=O)C1(C)NC(c2ccco2)C2C(=O)N(C)C(=O)C21 (stereo not drawn),.,102,1,i,.,.,4
Cc1cc(C)n(S(=O)(=O)Cc2ccccc2)n1,-1.8,100,1.1,i,.,.,6
CCOC(=O)c1sc(=S)n(Cc2ccccc2)c1C,.,102,0.84,i,.,.,.
Cc1cnc(C(=O)N2CCCC(C(=O)c3ccc(C(C)(C)C)cc3)C2)cn1 (stereo not drawn),.,107,1,i,.,.,-12
CCOc1cc(C(=O)OCC(=O)Nc2ccc(Cl)cn2)ccc1OCC(=O)N1CCOCC1,-2.1,74,0.94,i,30,27,2
COc1ccc(CCNC(=O)COc2ccc(S(=O)(=O)NC3CCCCC3)cc2Cl)cc1,-1.5,104,0.77,i,.,.,7
Cc1ccccc1-c1nc(CN2CCC(C(=O)NCCCN3CC(C)CC(C)C3)CC2)c(C)o1 (stereo not drawn),-0.5,96,0.73,i,.,.,1
Cn1c(C(=O)NCc2ccccc2)cc2oc3ccccc3c21,-3.0,.,0.77,i,107,17,-1
O=C(COC(=O)c1cc[n+]([O-])cc1)Nc1ccc([N+](=O)[O-])cc1Cl,.,85,0.96,i,.,.,-4
COC(=O)C1=C(C)N=C2SCCC(=O)N2C1c1cc(Br)ccc1OC (stereo not drawn),-3.8,103,0.97,i,.,.,2
O=C(CN1C(=O)NC(Cc2ccccc2)(Cc2ccccc2)C1=O)NCC1CCCCC1,-1.5,96,.,.,107,-35,2
COc1ccc(C2(CNC(=O)c3cc([N+](=O)[O-])cc([N+](=O)[O-])c3)CCCC2)cc1OC,-0.5,107,0.9,i,106,0,-4
COc1ccc(-c2c(C)nn3c(N)c(C#N)cnc23)cc1OC,.,103,0.94,i,.,.,-1

(further entries)
Compound,GALR2 ag,RGS16-Gao HTS,HSV replic up primary fold,HSV replic up,Insulin prom inh cell count,Insulin prom inh,PKD1 kinase inh
Cc1ccc(-c2noc(CCC(=O)Nc3ccccc3C)n2)cc1,-1.2,104,0.88,i,.,.,-12
c1ccc(COc2ccccc2CNc2nn[nH]n2)cc1,.,100,0.98,i,.,.,-4
Cn1ncc([N+](=O)[O-])c1C(=O)Nc1nc2ccccc2n1CCN1CCCCC1,1.4,104,0.93,i,182,6,-4
CC1(C)CC(=O)C=C(Nc2ccc(OCC(F)(F)C(F)F)cc2)C1,-2.0,100,0.83,i,.,.,-3
CCC1CCCCN1C(=O)COC(=O)c1cc2ccccc2cc1O (stereo not drawn),-3.0,104,0.92,i,99,35,-9
C=CCn1c(SCc2c(Cl)cccc2Cl)nnc1-c1cccnc1,0.3,83,0.84,i,101,-28,-3
Cc1ccc(-n2nc(C)cc2NC(=O)c2ccc(C)s2)cc1,-3.3,70,0.89,i,213,3,-2
NC1=NS(=O)(=O)NC1c1ccc(Cl)cc1 (stereo not drawn),-0.1,102,0.99,i,47,27,-4
CC(C)Cn1c(C(C)NC(=O)Cc2ccccc2)nc2ccccc21 (stereo not drawn),-2.0,63,1.1,i,.,.,-2
Cc1ccc(C)c(N2N=C(C(=O)O)CCC2=O)c1,.,96,0.98,i,.,.,.
CCOc1cc2[nH]c(=S)n(CCN3CCCCC3C)c(=O)c2cc1OCC (stereo not drawn),-0.6,138,0.77,i,106,-27,-3
CCOc1ccccc1C(=O)N[C@H](C(=O)NCc1ccccc1)C(C)C,.,102,0.89,i,139,-33,-3
CCOC(=O)C1=C(O)C(=O)NC(c2ccccc2)=C(OCC)C1,-3.0,98,1.1,i,161,8,3
CC(=O)Nc1ccc(NC(=O)c2nc(-c3ccccc3)oc2C)cc1,.,103,1,i,45,-35,-3
COc1ccc(OC)c(/C=C/C(=O)N2CCCc3ccccc32)c1,.,101,1,i,58,-73,-4
Cc1cc(NC(=O)c2cc(-c3ccc(Br)cc3)on2)no1,.,100,0.94,i,.,.,-4
COCCNC(=O)Nc1ccc2nc(C)sc2c1,-0.9,111,1.3,i,127,56,-1
COC(=O)c1ccc2ccn(CC(=O)NC(C)C)c2c1,-1.2,103,0.78,i,.,.,-8
CN(C)c1nc(N(C)C)nc(N(C)C)n1,-1.0,107,1,i,134,14,1
CC/C(=N\OC(=O)c1ccc(OC(C)C)cc1)c1ccc(C)cc1,-1.2,99,.,.,112,3,-2
Cc1onc(-c2ccccc2Cl)c1C(N)=O,-1.4,101,0.8,i,70,0,-19
N/C(=N\c1nc2ccccc2o1)NC(=O)c1ccccc1F,-2.0,105,0.96,i,139,8,-3
CCCc1nnc(NC(=O)CCC(=O)N2CCN(S(=O)(=O)c3ccc(F)cc3)CC2)s1,.,108,1.1,i,.,.,.
COc1ccccc1NC(=O)c1ccc(-c2ccccc2F)o1,-2.1,100,.,.,85,31,-6
Nn1c(SCC(=O)Nc2ccc(S(=O)(=O)N3CCCC3)cc2)nnc1C(F)(F)F,0.4,104,0.99,i,71,-62,-20
CC(/C=C/c1ccc(C)o1)=C\C(=O)O,-1.5,104,1,i,109,24,-9
COc1cc(SC)ccc1C(=O)N1CCN(c2ccc(O)cc2)CC1,.,102,0.73,i,168,33,11
COc1ccc(CNC(=O)COC(=O)c2n[nH]c3ccccc23)cc1OC,-0.8,104,0.78,i,147,48,-1
Cc1nn(CC(=O)N/N=C/c2cccs2)c(C)c1[N+](=O)[O-],.,95,0.93,i,.,.,.

Whole records from above. Order of screens: GALR2 ag	RGS16-Gao HTS	HSV replic up primary fold	HSV replic up	Insulin prom inh cell count	Insulin prom inh	PKD1 kinase inh
COCCNC(=O)Nc1ccc2nc(C)sc2c1 across the screens: -0.9	111	1.3	i	127	56	-1
COC(=O)c1ccc2ccn(CC(=O)NC(C)C)c2c1 across the screens: -1.2	103	0.78	i	.	.	-8
CC(/C=C/c1ccc(C)o1)=C\C(=O)O across the screens: -1.5	104	1	i	109	24	-9
N/C(=N\c1nc2ccccc2o1)NC(=O)c1ccccc1F across the screens: -2.0	105	0.96	i	139	8	-3

Screens as filed in PubChem.

Compounds as they come; overall some 1.3% were active at least once.
